YB-1 expr inh: inhibitors of YB-1 gene expression, primary screen, cell-based, fluorescence. U2OS, qRT-PCR YB-1 vs CDIP delta delta Cp, 16 h; active compounds read high; zero = DMSO, each unit about twofold. delta delta Cp (YB-1 minus CDIP) (no concentration beside the values). 30,000 tested, 0.37% active;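 active = delta delta Cp rounded down to an integer at or above 3, about 3 SD of DMSO wells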;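 also: higher means less YB-1 transcript or more CDIP transcript relative to DMSO; stock transfer was 100 nL into about 100 µL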
* marks the source's active call; other numbers are inactive results.

SMILES	YB-1 expr inh
O=C(NO)c1cccc(C(=O)N/N=C/c2ccccc2O)c1	-0.11
O=S(=O)(N[C@@H]1CCCN(Cc2ccc(OCCO)cc2)C1)c1ccc(Cl)cc1	0.037
C[C@H](CO)N1C[C@H](C)[C@H](CN(C)S(=O)(=O)c2ccccc2)Oc2ncc(/C=C/c3ccccc3)cc2C1=O	0.55
C=CCOC(=O)[C@H]1[C@@H]2C(=O)O[C@@H](c3ccccc3)[C@@H](c3ccccc3)N2[C@@H](c2ccc(OCCOC(=O)[C@@H]3C[C@@H]4C(=O)NCC(=O)N4[C@@H]3c3ccc(O)cc3)cc2)[C@]12C(=O)Nc1ccccc12	0.068
O=C(NO)c1cccc(C(=O)N/N=C/c2ccc(-c3ccccc3)c(F)c2)c1	0.078
COC(=O)CCCCCCC(=O)N/N=C/c1cc(Br)c(O)c(Br)c1	0.2
COC(=O)[C@@]1(CCS(=O)(=O)c2ccccc2)N=C(c2ccc(OCCCO)cc2)O[C@H]1c1ccccc1	0.31
CO[C@H]1O[C@H](CO)[C@@H](OC(=O)CCc2ccccc2)[C@H](OC(=O)c2cc3ccccc3[nH]2)[C@H]1OC(=O)c1cc2ccccc2[nH]1	0.055
C[C@H](CO)N1C[C@H](C)[C@@H](CN(C)C(=O)C2CC2)OCc2cn(nn2)CCCC1=O	-0.68
COC(=O)CCCCCCC(=O)N/N=C/c1ccc(S(=O)(=O)O)o1	-0.07
COC(=O)CCCCCCC(=O)N/N=C/c1c(O)ccc2ccccc12	-0.084
C[C@@H]1CN([C@@H](C)CO)C(=O)CCCn2nncc2CO[C@@H]1CN(C)S(=O)(=O)c1ccc(Oc2ccccc2)nc1	-0.1
COCCOC(=O)N1C(=O)[C@@]2(c3ccccc31)[C@H](c1ccccc1OCCO)N1[C@H](c3ccccc3)[C@H](c3ccccc3)OC(=O)[C@H]1[C@@H]2C(=O)N1CCN(c2ncccn2)CC1	-0.065
C[C@H](CO)N1C[C@H](C)[C@H](CN(C)C(=O)c2ccc(N3CCN(C)CC3)cc2)OCc2cnnn2CCCC1=O	-0.16
C[C@H](CO)N1C[C@H](C)[C@@H](CN(C)C(=O)Nc2ccccc2)OCc2cn(nn2)CCCC1=O	-0.077
O=C(NO)c1ccc(C(=O)N/N=C/c2cccc(B(O)O)c2)cc1	0.16
C[C@@H]1CN([C@H](C)CO)C(=O)CCCn2cc(nn2)CO[C@H]1CN(C)Cc1ccc2c(c1)OCCN2C	0.08
C[C@H]1CN([C@@H](C)CO)C(=O)CCCn2cc(nn2)CO[C@H]1CN(C)C(=O)c1ccc(N2CCN(C)CC2)cc1	-0.096
C[C@@H]1CN([C@@H](C)CO)C(=O)CCCn2nncc2CO[C@H]1CN(C)C(=O)Nc1cccc(Oc2ccccn2)c1	-0.023
O=C1C[C@@](C(=O)NCC(F)(F)F)(c2ccc([N+](=O)[O-])cc2)[C@@H](c2ccc(CO)cc2I)N1C1CCCCC1	-0.04
CCCN(C)C[C@@H]1OCc2cnnn2CCCC(=O)N([C@H](C)CO)C[C@H]1C	0.032
COC(=O)CCCCCCC(=O)N/N=C/C1(NC(=O)OC(C)(C)C)CCCC1	0.1
C[C@H]1CN([C@@H](C)CO)C(=O)CCCn2cc(nn2)CO[C@H]1CN(C)S(=O)(=O)c1cccs1	0.15
C[C@@H](O)[C@@H](O)[C@@H](O)C/C=N/NC(=O)CCCCCC(=O)Nc1ccccc1O	0.23
Cc1cccc(S(=O)(=O)N(C)C[C@H]2OCc3cn(nn3)CCCC(=O)N([C@H](C)CO)C[C@H]2C)c1	0.046

Further records.
SMILES	YB-1 expr inh
COc1ccc([Si](C)(C)[C@@H]2[C@@H](CCO)O[C@]3(C(=O)N(Cc4ccccc4)c4ccc(N5CCCCC5=O)cc43)[C@H]2C)cc1	-0.58
C=CCNC(=O)[C@@H]1[C@H]2C(=O)O[C@H](c3ccccc3)[C@H](c3ccccc3)N2[C@H](c2ccc(OCCO)cc2)[C@@]12C(=O)Nc1ccc(C#CCNC(N)=O)cc12	-0.0076
COc1ccc(NC(=O)N(C)C[C@H]2OCc3cn(nn3)CCCC(=O)N([C@@H](C)CO)C[C@@H]2C)cc1	0.15
C=CCNC(=O)[C@@H]1[C@H]2C(=O)O[C@H](c3ccccc3)[C@H](c3ccccc3)N2[C@H](c2ccc(O)cc2)[C@@]12C(=O)Nc1ccccc12	0.21
Cc1ccc(CN(C)C[C@@H]2OCc3cn(nn3)CCCC(=O)N([C@H](C)CO)C[C@@H]2C)cc1	0.14
Cc1noc(C)c1S(=O)(=O)N(C)C[C@@H]1OCc2cn(nn2)CCCC(=O)N([C@H](C)CO)C[C@H]1C	0.09
C/C=C(C)\C=N\NC(=O)CCCCC(=O)NO	0.2
C[C@H](CO)N1C[C@H](C)[C@H](CN(C)Cc2ccccc2)OCc2cn(nn2)CCCC1=O	-0.38
[N-]=[N+]=NCc1ccccc1C[C@]1(C(=O)N2CCOCC2)N=C(c2ccc(OCCCO)cc2)O[C@H]1c1ccccc1	0.3
COc1ccc(/C=N/NC(=O)c2ccccc2O)cc1OC	-0.094
COc1cc2c(cc1OC)CN(C(=O)[C@@H]1[C@H]3C(=O)O[C@H](c4ccccc4)[C@H](c4ccccc4)N3[C@H](c3ccccc3OCCO)[C@@]13C(=O)Nc1ccc(C#CCCO)cc13)CC2	0.53
C=CC1c2cc(O)c(OC)cc2CCN1Cc1cc2c(cc1Br)OCO2 (stereo not given)	-0.2
C[C@H]1CN([C@@H](C)CO)C(=O)CCCn2cc(nn2)CO[C@@H]1CN(C)C(=O)Nc1ccc(N2CCCCC2)cc1	0.28
C[C@H](CO)N1C[C@H](C)[C@H](CN(C)S(=O)(=O)c2ccc(F)cc2)Oc2ncc(-c3cccc(F)c3)cc2C1=O	-0.17
C[C@H](CO)N1C[C@H](C)[C@H](CN(C)S(=O)(=O)c2ccc(F)cc2)Oc2ncc(C#Cc3ccc(F)cc3)cc2C1=O	-0.41
COc1ccc(NC(=O)N(C)C[C@@H]2OCc3cn(nn3)CCCC(=O)N([C@H](C)CO)C[C@@H]2C)cc1	0.24
COCCCNC(=O)[C@]1(Cc2ccccc2CN=[N+]=[N-])N=C(c2ccc(OCCCO)cc2)O[C@@H]1c1ccccc1	0.25
C[C@H](CO)N1C[C@H](C)[C@H](CN(C)C(=O)Nc2ccc3c(c2)OCCO3)OCc2cnnn2CCCC1=O	-0.29
NC(=O)NCC#Cc1ccc2c(c1)[C@]1(C(=O)N2)[C@H](C(=O)O)[C@H]2C(=O)O[C@H](c3ccccc3)[C@H](c3ccccc3)N2[C@@H]1c1ccccc1OCCO	0.48
C[C@@H]1CN([C@@H](C)CO)C(=O)CCCn2nncc2CO[C@@H]1CN(C)Cc1cccc2c1OCCCO2	-0.14
COc1ccc(C#Cc2ccc3c(c2)[C@]2(C(=O)N3)[C@H](c3ccccc3OCCO)N3[C@H](c4ccccc4)[C@H](c4ccccc4)OC(=O)[C@H]3[C@@H]2C(=O)N2CCc3cc(OC)c(OC)cc3C2)cc1	-0.18
O=C1O[C@H](c2ccccc2)[C@H](c2ccccc2)N2[C@H]1[C@@H](C(=O)N1CCCCCCC1)[C@]1(C(=O)Nc3ccc(C#CCCO)cc31)[C@H]2c1ccc(O)cc1	-0.18
O=S(=O)(NCC1CCN(Cc2ccc(OCCO)cc2)CC1)c1cc(Cl)ccc1Cl	0.25
COc1ccccc1NC(=O)N(C)C[C@@H]1OCc2cnnn2CCCC(=O)N([C@H](C)CO)C[C@@H]1C	-0.89
COC(=O)CCCCCCC(=O)N/N=C/C[C@H](C)CCC=C(C)C	0.17

Some of these compounds in order of the YB-1 expr inh value, largest number first.
SMILES	YB-1 expr inh
C[C@H]1CN([C@@H](C)CO)C(=O)CCCn2cc(nn2)CO[C@@H]1CN(C)C(=O)Nc1ccc(N2CCCCC2)cc1	0.28
C=CCNC(=O)[C@@H]1[C@H]2C(=O)O[C@H](c3ccccc3)[C@H](c3ccccc3)N2[C@H](c2ccc(O)cc2)[C@@]12C(=O)Nc1ccccc12	0.21
COc1ccc(/C=N/NC(=O)c2ccccc2O)cc1OC	-0.094
C[C@@H]1CN([C@@H](C)CO)C(=O)CCCn2nncc2CO[C@@H]1CN(C)Cc1cccc2c1OCCCO2	-0.14

The results go on:
SMILES	YB-1 expr inh
COC(=O)[C@]1(Cc2ccccc2N=[N+]=[N-])N=C(c2ccc(OCCCO)cc2)O[C@@H]1c1ccccc1CN=[N+]=[N-]	-0.31
C[C@H](CO)N1C[C@H](C)[C@H](CN(C)C(=O)Nc2cccc3ccccc23)Oc2ncc(C#Cc3ccccc3)cc2C1=O	0.0094
COC(=O)CCCCCCC(=O)N/N=C/CNC(=O)OC(C)(C)C	0.19
CNC[C@@H]1OCc2cnnn2CCCC(=O)N([C@@H](C)CO)C[C@@H]1C	0.23
C[C@@H]1CN([C@H](C)CO)C(=O)CCCn2cc(nn2)CO[C@@H]1CN(C)C(=O)Nc1ccccc1F	-0.0063
CC1(C)COC(CCC/C=N/NC(=O)CCCCCCC(=O)O)OC1	-0.43
C[C@H]1CN([C@@H](C)CO)C(=O)CCCn2cc(nn2)CO[C@H]1CN(C)Cc1ccccc1	0.05
CC(C)(C)OC(=O)CC[C@@]12N=C(c3ccc(OCCCO)cc3)O[C@@H]1c1ccccc1CN(Cc1ccccc1)C2=O	0.092
COC(=O)CCCCCCC(=O)NN	0.027
COc1ccc(C#Cc2cnc3c(c2)C(=O)N([C@H](C)CO)C[C@H](C)[C@H](CN(C)C)O3)cc1OC	-0.5
C[C@@H]1CN([C@@H](C)CO)C(=O)CCCn2cc(nn2)CO[C@H]1CN(C)C(=O)NC1CCCCC1	-0.21
C=CCOC(=O)[C@@H]1[C@H]2C(=O)O[C@H](c3ccccc3)[C@H](c3ccccc3)N2[C@H](c2ccc(OCCOC(=O)[C@@H]3C[C@@H]4C(=O)NCC(=O)N4[C@@H]3c3ccc(O)cc3)cc2)[C@@]12C(=O)Nc1ccc(I)cc12	0.16
C[C@H]1CN([C@@H](C)CO)C(=O)CCCn2cc(nn2)CO[C@H]1CN(C)C(=O)Nc1ccnc(N2CCOCC2)c1	-0.67
O=C(CCCCCC(=O)Nc1ccccc1O)N/N=C/c1cc(Br)cs1	0.13
O=C1N[C@@H](Cc2ccccc2)C(=O)N2[C@@H]1C[C@@H](C(=O)NCc1ccc(F)cc1)[C@H]2c1cccc(OCCO)c1	0.28
C[C@H](CO)N1C[C@H](C)[C@H](CN(C)C(=O)Nc2ccc(C(C)(C)C)cc2)OCc2cnnn2CCCC1=O	0.44
C[C@H]1CN([C@@H](C)CO)C(=O)CCCn2cc(nn2)CO[C@H]1CN(C)C(=O)Nc1ccc(N2CCCCC2)cc1	0.29
C[C@H](CO)N1C[C@H](C)[C@H](CN(C)Cc2ccncc2)Oc2ncc(C#CCC3CCCC3)cc2C1=O	0.0013
[N-]=[N+]=NCc1ccccc1C[C@]1(C(=O)NCC(O)CO)COC(c2ccc(OCCCO)cc2)=N1 (stereo not given in full)	-0.35
C[C@@H]1CN([C@H](C)CO)C(=O)CCCn2cc(nn2)CO[C@H]1CN(C)C(=O)Oc1ccccc1	0.039
Cc1ccc(/C=N/NC(=O)c2ccccn2)o1	0.069
Cc1cccc(CN(C)C[C@@H]2Oc3ncc(-c4cccc(F)c4)cc3C(=O)N([C@H](C)CO)C[C@@H]2C)c1	0.18
O=C(NCCN1CCOCC1)[C@@]1(Cc2ccccc2)COC(c2ccc(OCCCO)cc2)=N1	0.32
C[C@@H]1CN([C@@H](C)CO)C(=O)CCCn2nncc2CO[C@H]1CN(C)Cc1ccccc1	0.25
C[C@H](CO)N1C[C@H](C)[C@H](CN(C)Cc2ccc(Cl)c(Cl)c2)OCc2cnnn2CCCC1=O	-0.11

Quoted from the listing:
C[C@@H]1CN([C@@H](C)CO)C(=O)CCCn2nncc2CO[C@H]1CN(C)Cc1ccccc1 – YB-1 expr inh = 0.25
CC1(C)COC(CCC/C=N/NC(=O)CCCCCCC(=O)O)OC1 – YB-1 expr inh = -0.43
CC(C)(C)OC(=O)CC[C@@]12N=C(c3ccc(OCCCO)cc3)O[C@@H]1c1ccccc1CN(Cc1ccccc1)C2=O – YB-1 expr inh = 0.092
C[C@H](CO)N1C[C@H](C)[C@H](CN(C)Cc2ccncc2)Oc2ncc(C#CCC3CCCC3)cc2C1=O – YB-1 expr inh = 0.0013
COc1ccc(C#Cc2cnc3c(c2)C(=O)N([C@H](C)CO)C[C@H](C)[C@H](CN(C)C)O3)cc1OC – YB-1 expr inh = -0.5
Cc1cccc(CN(C)C[C@@H]2Oc3ncc(-c4cccc(F)c4)cc3C(=O)N([C@H](C)CO)C[C@@H]2C)c1 – YB-1 expr inh = 0.18
[N-]=[N+]=NCc1ccccc1C[C@]1(C(=O)NCC(O)CO)COC(c2ccc(OCCCO)cc2)=N1 (stereo not given in full) – YB-1 expr inh = -0.35

Other results follow:
SMILES	YB-1 expr inh
COc1cc2c(cc1OC)CN(C(=O)[C@@H]1[C@H]3C(=O)O[C@H](c4ccccc4)[C@H](c4ccccc4)N3[C@H](c3ccccc3OCCO)[C@@]13C(=O)Nc1ccccc13)CC2	-0.37
COc1cc(Br)c(/C=N/NC(=O)c2ccccn2)cc1OC	-0.48
OC(CSc1ccccn1)CC(O)c1ccccc1 (stereo not given)	-0.015
Cc1ccc(OC(=O)N(C)C[C@H]2OCc3cn(nn3)CCCC(=O)N([C@H](C)CO)C[C@@H]2C)cc1	-0.28
O=C(CCCCC(=O)N/N=C/c1cccc(Oc2ccccc2)c1)NO	0.21
COc1ccc(O)c(/C=N/NC(=O)c2ccccc2O)c1	0.54
NC(=O)[C@H]1[C@@H]2C(=O)O[C@@H](c3ccccc3)[C@@H](c3ccccc3)N2[C@@H](c2ccc(OCCO)cc2)[C@]12C(=O)Nc1ccccc12	-0.24
C[C@H](CO)N1C[C@H](C)[C@H](CN(C)C(=O)Nc2ccccc2)Oc2ncc(/C=C/c3ccccc3)cc2C1=O	0.12
C[C@@H]1CN([C@H](C)CO)C(=O)CCCn2nncc2CO[C@@H]1CN(C)Cc1cccnc1	0.12
CC1=C(C/C=N/NC(=O)c2ccccn2)C(C)(C)CCC1	0.69
CCCC(O)C#Cc1cnc2c(c1)C(=O)N([C@H](C)CO)C[C@H](C)[C@H](CN(C)C(=O)Nc1ccc3c(c1)OCO3)O2 (stereo not given in full)	0.11

Bioassay records from PubChem BioAssay.

Some of the compounds tested, so the mix of outcomes need not match the whole.
